# High-throughput results from PubChem BioAssay.
# SARS PLpro yeast = qHTS of Yeast-based Assay for SARS-CoV PLP. AID 485353, 2010. Potency, µM (series often up to 32.9 µM), for the others: at the highest dose activity, positive = growth rescue. S. cerevisiae expressing SARS-CoV PLpro, growth rescue; control for the full effect not named in the record. actives 0.19% (n = 330,000); also: 0% is about no effect; nearly all actives have a fitted effect of over 55% in size; growth read by luminescence after 48 h
# MARV entry inh = qHTS for inhibitors of binding or entry into cells for Marburg Virus | Marburg virus pseudotyped entry inhibition, cell reporter; control for the full effect not named in the record; about a third of the inactives were read at about 46 µM | Potency, µM (titrated, usually from 37.8 µM), without a hit: at the top dose activity change, negative = inhibition, actives largely listed as inhibitors | actives 1.8% (n = 300,000) | AID 540276, 2011; active = well fitted inhibition curve with a large enough effect; inconclusive = small, poorly fitted or top-dose-only effect, or effect the other way; inactive = flat fitted curve, though single readings scatter; tested in HEK293 cells; about a fifth of its hits are not listed in these tables; also: % is scaled to controls: 0 for no effect and ±100 for the full control effect; luciferase read-out
# RE007 growth inh = qHTS Assay for Inhibitors of the HIV-1 protein Vpr | S. pombe RE007 Vpr strain, BacTiter-Glo ATP luminescence, 24 h; control for the full effect not named in the record | Potency, µM (series often up to 92.2 µM), without a hit: at the top dose activity change, negative = less growth | actives 0.21% (n = 360,000); active = well fitted falling curve with a large enough effect; inconclusive = small, poorly fitted or top-dose-only effect; inactive = no such curve, though single readings can be large or run the other way;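 also: % is scaled to controls: 0 for no effect and ±100 for the full control effect; nearly all actives have a fitted effect of over 50% in size; the assay follows cell death caused by Vpr and the record does not say whether a fall means rescue or toxicity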
#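 Fission yeast RE007 carrying one integrated HIV-1 vpr copy, seeded at OD 0.01 in PMG+AL medium with 23 nL pinned compound. Grown 24 h at 30 degrees; viability read by BacTiter-Glo luminescence after 5 min.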
# LASV entry inh = qHTS for Inhibitors of binding or entry into cells for Lassa Virus; AID 540256, 2011; actives 1.2% (n = 300,000); Lassa virus pseudotype entry inhibition, cell reporter; control for the full effect not named in the record; Potency, µM (doses to about 37.9 µM), for inactives: at the top dose activity change, negative = inhibition, most hits filed as inhibitors; active means well fitted inhibition curve with a large enough effect; inconclusive means small, poorly fitted or top-dose-only effect, or effect the other way; inactive means flat fitted curve, though single readings scatter; tested in HEK293 cells; also: % is scaled to controls: 0 for no effect and ±100 for the full control effect; nearly all actives have a fitted effect of over 50% in size; luciferase read-out
# NS1 function inh = qHTS Assay for Inhibitors of Influenza NS1 Protein Function | S. cerevisiae slowed by influenza A NS1, growth recovery by OD600 | Potency, µM (top dose mostly 46.1 µM), without a hit: top-dose activity, positive = more growth | actives 0.4% (n = 270,000); also: actives are rising curves; nearly all actives have a fitted effect of over 50% in size
#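 Recovery from NS1-induced slow growth read by OD600 in budding yeast switched to galactose assay medium (pH 6.0, -URA) at 1:100 dilution. Compound 23 nl per well; the matching strain lacking NS1 serves as control.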
# Cruzain inh Det = qHTS Assay for Promiscuous and Specific Inhibitors of Cruzain (with detergent); Cruzipain (Trypanosoma cruzi), P25779; purified cruzain, Z-FR-AMC fluorescence, 0.01% Triton; Potency, µM, without a hit: max response, negative = inhibition, most hits filed as inhibitors; actives 0.43% (n = 200,000); active = well fitted curve in the direction sought with a large enough effect; inconclusive = small, poorly fitted or top-dose-only effect, or another doubt; inactive = no such curve, though single readings can be large; an effect the other way counts as inactive or inconclusive;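 also: plate controls were neutral wells for no effect and buffer without enzyme for full effect; nearly all actives have a fitted effect of over 40% in size; top concentration of the series not given in the record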
# Target sequence (P25779 123-467 limits assumed): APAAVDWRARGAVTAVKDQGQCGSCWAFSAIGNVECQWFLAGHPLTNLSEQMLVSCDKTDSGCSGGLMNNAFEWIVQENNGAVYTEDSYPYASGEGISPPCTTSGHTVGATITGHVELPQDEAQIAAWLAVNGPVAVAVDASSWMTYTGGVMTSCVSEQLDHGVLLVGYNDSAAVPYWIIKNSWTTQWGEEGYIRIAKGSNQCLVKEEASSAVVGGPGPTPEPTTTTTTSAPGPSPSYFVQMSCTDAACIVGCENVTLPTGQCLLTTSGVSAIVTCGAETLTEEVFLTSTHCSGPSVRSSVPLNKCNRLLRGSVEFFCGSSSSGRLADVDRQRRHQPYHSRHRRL
#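 Cysteine protease activity tested under reducing, mildly acidic conditions (100 mM sodium acetate pH 5.5, 5 mM DTT) plus 0.01% Triton X-100. Cruzain 1.5 nM; substrate Z-FR-AMC 2 uM; 15 min compound preincubation at room temperature.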
# Cruzain noTriton = qHTS Assay for Promiscuous and Specific Inhibitors of Cruzain (without detergent) | Potency, µM, without a hit: max response, negative = inhibition, most hits filed as inhibitors | Cruzipain (Trypanosoma cruzi), P25779 | actives 2.3% (n = 200,000) | purified cruzain, Z-FR-AMC fluorescence, no detergent; active = well fitted curve in the direction sought with a large enough effect; inconclusive = small, poorly fitted or top-dose-only effect, or another doubt; inactive = no such curve, though single readings can be large; an effect the other way counts as inactive or inconclusive;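 also: plate controls were enzyme without inhibitor for no effect and buffer without enzyme for full effect; nearly all actives have a fitted effect of over 40% in size; top concentration of the series not given in the record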
#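 Detergent-free condition (0.00005% Triton X-100) in acetate buffer pH 5.5 with DTT. 1.5 nM enzyme and compound were pre-mixed 15 min, then 2 uM Z-FR-AMC substrate added; reaction progress from fluorescence change between first and third reads (60 s).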
# 2A StopGo = High Throughput Screening for Foot and Mouth Disease Virus Antivirals; human cells with a luciferase reporter of 2A StopGo recoding; control for the full effect not named in the record; Potency, µM (titrated, usually from 57.9 µM), for the others: at the top dose signal change, negative = less light; actives 1.2% (n = 410,000); active = well fitted falling curve with a large enough effect; inconclusive = small, poorly fitted or top-dose-only effect; inactive = no such curve, though single readings can be large or run the other way; tested in HEK293T cells; also: % is scaled to controls: 0 for no effect and ±100 for the full control effect; nearly all actives have a fitted effect of over 45% in size; luciferase light after 4 h
# * = called active by the depositor; ? = inconclusive; · = no result given; & = joins results of further samples; [ ] = another dose, or the depositor's remark. Unless noted, calls follow the shape of the dose curve; as a rule, active means well fitted rising curve with a large enough effect; inconclusive means small, poorly fitted or top-dose-only effect; inactive means no such curve, though single readings can be large or run the other way. Potency is read from the fitted curve at half-maximal effect.
SMILES,SARS PLpro yeast,MARV entry inh,RE007 growth inh,LASV entry inh,NS1 function inh,Cruzain inh Det,Cruzain noTriton,2A StopGo
Cc1cc(NC(=O)c2c(C)noc2C)no1,0%,-2%[46.1 µM],27%,?,-2%,·,·,-1%
N#C/C(=C\c1cc(O)c(O)c(O)c1)C(N)=O,1%,1%,1%,·,1%,·,·,-12%
O=C(NCCC1=CCCCC1)c1ccc2c(c1)N(Cc1ccccc1)C(=O)CS2,7%,?,3%,?,13%,0.7%,-23%,?
CCCCCn1c(N)c(-c2nc3ccccc3s2)c2c([N+](=O)[O-])nn(CC)c(=O)c21,0%,2.9µM*,6%,11%,-5%,4.6%,0%,7%
COc1ccc(OC)c(NC(=O)CN(Cc2ccccc2)S(C)(=O)=O)c1,1%,·,-4%,·,0%,·,·,-4%
Cc1ccc(-c2noc(CCCC(=O)NC3CCCCC3)n2)cc1,1%,?,1%,-23%,3%,·,·,?
Cc1oc2ncnc(N3CCOCC3)c2c1C(=O)NCc1ccc(Cl)cc1,·,·,·,-3%[46.1 µM],·,-1.6%,-7%,-18%
CN(C)CCCN(C(=O)c1ccc(C(=O)c2ccccc2)cc1)c1nc2cc3c(cc2s1)OCO3,-2%,16µM*,3%,11µM*,-16%,·,·,?
Cc1ccc(-n2c(NN)nc3ccccc3c2=O)c(C)c1,10%,?,-7%,5%,27%,-2.5%,-5%,-21%
COC(=O)[C@@H](Cc1c[nH]c2ccccc12)NC(=O)C1CCCN(S(=O)(=O)c2ccc(C)cc2)C1 (some centres not stated),0%,·,16%,·,5%,·,·,0%
CCOC(=O)c1ccc(N2C(=O)c3n[nH]c(C)c3C2c2ccccn2)cc1 (configuration not stated),5%,·,3%,·,-9%,-1.1%,-8%,-4%
C[C@H](NC(=O)CCCn1nnc2ccccc2c1=O)C(=O)O,0%,6%,-8%,-4%,-2%,·,·,31%[activator]
Cc1cccc(C(=O)NCC(=O)N2CCCC2)c1,-2%,26%[46.1 µM],-8%,17%[46.1 µM],13%,·,·,5%
O=C(c1cc(C(=O)NCc2ccccc2)c(=O)n(Cc2ccccc2)c1)c1cc(Br)ccc1O,25%,?,1%,?,?,8.6%,4µM*,-7%
Cc1ccc(NC(=O)CN2CCC(C(=O)c3ccc4c(c3)OCCO4)CC2)cc1,-3%,4%,-10%,?,-14%,-5.4%,2%,-25%
O=C(Nc1ccccc1C(=O)Nc1ccncc1)c1ccccc1,2%,-4%[46.1 µM],-23%,4%[46.1 µM],-12%,·,·,21%
CC(C)(C)c1ccc(S(=O)(=O)c2cnc(SCC(=O)Nc3ccc4c(c3)OCCO4)[nH]c2=O)cc1,·,?,·,·,·,?,?,-13%
COc1cc(CCC(=O)NNC(=O)c2ccc(Cl)cc2)cc(OC)c1OC,0%,12%[46.1 µM],-3%,-7%[46.1 µM],-2%,·,·,-10%
CCOc1ccc(-c2cc(C(=O)OC)nc3c2c(=O)n(C)c(=O)n3C)cc1,1%,2%[46.1 µM],14%,-1%[46.1 µM],2%,·,·,-16%
CCOc1ccccc1OCC(=O)Oc1ccc(C)c(C)c1,4%,·,4%,·,-21%,·,·,-12%
CCCCC1(C)NC(=S)N2N1C(=S)NC2(C)CCCC (configuration not stated),6%,-1%[14.2 µM],4%,?,0%,·,·,2%
CCc1ccc(C2c3c(-c4ccccc4O)n[nH]c3C(=O)N2Cc2cccnc2)cc1 (configuration not stated),·,-3%[46.1 µM],·,?,·,-11%,?,-30%
CC(C)Cn1cnc2c(SCc3ccc(Cl)cc3)nc(N)nc21,·,?,3%,?,·,·,·,0%
CCC(=O)N1CCc2cc(S(=O)(=O)Nc3ccccc3C)ccc21,2%,-28%[46.1 µM],-3%,-6%,3%,·,·,13%
CC1CCN(CCCn2c(=S)[nH]c3ccc(N4CCOCC4)cc3c2=O)CC1,3%,?,-17%,-3%,?,-3.1%,-1%,-10%
CCCCOC(=O)Nc1ccc(S(=O)(=O)Nc2ccc([N+](=O)[O-])cc2)cc1,12%,-11%,-17%,-29%,-5%,-11%,-4%,20%
COc1ccc(NC(=O)CSc2ccc3c4c(cccc24)C(=O)c2ccccc2-3)cc1,5%,?,8%,?,?,4.0%,13µM*,20%
Cc1ccc(N2CCN(c3cc(C)nc4c5c(C)cc(C)nc5nn34)CC2)cc1,?,4%,·,·,-1%,2.5%,-6%,·
CCc1ccc(/C=C/c2c([N+](=O)[O-])c(=O)n(C)c(=O)n2C)cc1,-1%,·,-3%,·,-11%,·,·,16µM*
O=C1CC(c2cccc(O)c2)c2c(nc(SCc3ccccc3F)[nH]c2=O)N1 (configuration not stated),·,19%[46.1 µM],·,17%[46.1 µM],·,-3.9%,-3%,-1%
O=C(CNS(=O)(=O)c1ccccc1Br)OCC(=O)N1CCc2ccccc21,3%,-9%,-3%,-8%,-12%,0.1%,8%,0%
O=C(NCc1ccco1)C(c1cccs1)N(C(=O)C1COc2ccccc2O1)c1cccc(O)c1 (configuration not stated),-2%,-2%&-17%,-1%,-14%,-11%,-3.3%,-7%,-11%
CN(Cc1c(C(=O)N/N=C/c2cccs2)nnn1-c1nonc1N)c1ccccc1,3%,·,-3%,·,3%,·,·,-6%
CCOc1ccc(/C=C/C2=NNC(=O)CC2)cc1,-1%,-24%[46.1 µM],-6%,-16%,-2%,·,·,55%[activator]
COc1ccc(C(=O)COC(=O)CNC(=O)c2cccc(OC(F)F)c2)cc1,-5%,-6%,-9%,11%,-8%,·,·,-16%
CC(C)=CCc1c(O)cc2c(c1O)C(=O)CC(c1ccc(O)cc1)O2 (configuration not stated),-10%,·,-21%,·,-88%,·,·,-19%
CCC(CC)C(=O)c1c[nH]c(C(=O)N2CCN(c3ccc(OC)cc3)CC2)c1,0%,?,3%,2%,·,·,·,12%
Cc1ccc(Sc2nc(-c3ccccc3)ccc2C#N)cc1,-4%,?,-9%,8%,4%,-9.5%,-3%,-13%
CC(C)(C)c1nnc(NC(=O)c2ccc3c(c2)OCO3)s1,4%,?,1%,?,-12%,·,·,25%
CCOc1ccccc1C(=O)NCC(=O)OCCOc1cccc(Cl)c1,-10%,29%[46.1 µM],-6%,9%[46.1 µM],-22%,·,·,-3%
COc1cccc(C2SCC(=O)N2c2cccc(C)c2)c1OC (configuration not stated),15%,?,9%,0%,-8%,-1.7%,1%,-19%
CCC(C)(C)n1nnnc1C(C(C)C)N1CCSCC1 (configuration not stated),-5%,1%,1%,?,1%,-1.0%,-3%,-3%
C[C@H](NC(=O)OC(C)(C)C)c1nnc(SCC(N)=O)o1,3%,?,4%,-3%,6%,5.7%,-2%,14%
CCOc1cc(C(=O)NC(C)COC)cc(OCC)c1OCC (configuration not stated),-2%,9%,-7%,-5%,-8%,1.2%,24%,-21%
Cc1nn(CC(=O)NC(C)c2ccccc2)c(C)c1[N+](=O)[O-] (configuration not stated),-1%,11%[46.1 µM],-10%,23%,3%,·,·,0%
COc1cccc(CNC(=O)c2ccc(NC(=O)C3=CSCCO3)cc2)c1,-2%,·,19%,·,-17%,·,·,?
O=C(Cc1ccc(Cl)cc1)NC1CCCN(Cc2ccccc2F)C1 (configuration not stated),3%,·,12%,·,0%,·,·,-2%
CCc1cccc(NS(=O)(=O)c2c(C)[nH]c(=O)[nH]c2=O)c1,-1%,·,3%,4%[46.1 µM],4%,-2.7%,-1%,-18%&-13%
COc1ccc(OC)c(NC(=O)c2oc3c(c2C)-c2nn(Cc4ccc(Cl)cc4)cc2CC3)c1,·,·,·,7%[46.1 µM],·,-5.2%,-17%,-2%
CC1CCN(S(=O)(=O)c2cccc(C(=O)NC3CCCCC3)c2)CC1,-1%,15%[46.1 µM],-11%,?,11%,·,·,24%
CCOC(=O)C1=C(C)NC(=O)NC1c1ccc(N(C)C)cc1 (configuration not stated),1%,·,-4%,·,3%,-1.1%,-5%,-8%
COc1cccc(N2C(=O)[C@H]3C(C(=O)c4cnccn4)=NN[C@H]3C2=O)c1,-2%,-5%[46.1 µM],-21%,10%[46.1 µM],-34%,·,·,-23%
COc1cccc(NC(=O)CC2(CC(=O)O)CCCC2)c1,0%,-1%,11%,17%,-8%,7.1%,-1%,14%
O=C(O)CCCC(=O)NCc1c(Cl)cccc1Sc1ccc(Cl)cc1,0%,-2%[14.2 µM],-11%,0%,5%,·,·,-13%
Cc1ccc(-n2nc(CO)c(C(=O)NCCCCc3ccccc3)n2)cc1C,·,-3%[46.1 µM],·,6%[46.1 µM],·,-2.6%,2%,-1%
CCOC(=O)C1=C(O)CSC1=Nc1ccc(C)cc1,4%,?,-2%,1%,·,·,·,0%
O=C(O)C1C2CC2CN1C(=O)c1ccc(Cl)cc1Cl (configuration not stated),8%,28%[46.1 µM],-10%,-4%,4%,·,·,8%
COc1cccc(CC(=O)Nc2ccccc2C(=O)N2CCOCC2)c1,4%,-1%,18%,-6%,-1%,0.5%,-4%,-11%
COc1cc(NC(=S)NCCCN(C)C)c(OC)cc1NC(=O)c1ccco1,-4%,·,-9%,·,1%,·,·,-11%
COc1ccc(/C=C2/C(=O)N(c3c(F)c(F)c(F)c(F)c3F)N=C2C)cc1,6%,·,1%,·,11µM*,·,·,-18%
O=S(=O)(Nc1ccc(-n2cnnn2)cc1)c1ccc(F)c(F)c1F,0%,·,1%,·,2%,·,·,-26%
Cc1c(C)n(C(=O)CSc2nc3ccccc3[nH]2)c2ccccc12,5%,-6%&-6%,-9%,0%,-2%,-10%,?,4%
